Assay outcomes deposited in PubChem by several laboratories.
VCAM-1 rise: boosters of cytokine-driven VCAM-1 levels – cell-based, plate reader, pooled HUVEC, TNFa stimulus (AID 455) | HUVEC TNFa-induced VCAM-1 immunofluorescence, plate reader; numbers were filed only for top-ranked candidate wells | augmentation, % at 5 µM | 10,000 tested, 0.2% active;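 active = a compound raising TNF-alpha-driven VCAM-1 surface staining, with its hit status upheld on visual or statistical review; inactive = the rest, including hits rejected on review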;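 also: 0% = TNFa with vehicle and 100% = strongest image-checked hit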
26S disassembly: blocks ATP-dependent breakdown of the yeast 26S proteasome; AID 751; 24,000 tested, 0.2% active; anti-FLAG beads, GFP-proteasome disassembly, flow cytometry; inhibition of disassembly, % (concentration not given with the values);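 active = above 40%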;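 also: plate controls were ATP control with full disassembly for no effect and ATP-gamma-S intact proteasomes for full effect; higher percent means more bead fluorescence retained so stronger block of disassembly; stock transfer was 100 nL into about 10 µL; wells with too few beads may also be inconclusive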
Numbers without * were called inactive; i = inactive; & = joins results of further samples. Some of the compounds tested (hit frequency here may not be typical).

#1 CN1CCCN=C1COC(=O)C(O)(c1ccccc1)C1CCCCC1 (stereo unspecified)
#2 CCC(NC(C)C)C(O)c1ccc(O)c2[nH]c(=O)ccc12 (stereo unspecified)
#3 CC1Cc2ccccc2N1NC(=O)c1ccc(Cl)c(S(N)(=O)=O)c1 (stereo unspecified)
#4 COc1ccc(C2CNC(=O)C2)cc1OC1CCCC1 (stereo unspecified)
#5 CCn1cc(C(=O)O)c(=O)c2cnc(N3CCNCC3)nc21
#6 CCCCCC(=O)O[C@]1(C(C)=O)CC[C@H]2[C@@H]3CCC4=CC(=O)CC[C@]4(C)[C@H]3CC[C@@]21C
#7 O=C(O)c1cccnc1Nc1cccc(C(F)(F)F)c1
#8 CN(C)CCCC1(c2ccc(F)cc2)OCc2cc(C#N)ccc21 (stereo unspecified)
#9 C1COC(NC(C2CC2)C2CC2)=N1
#10 CNCCCN1c2ccccc2CCc2ccccc21
#11 Cc1ccc(N(CC2=NCCN2)c2cccc(O)c2)cc1

| compound no. | 1 | 2 | 3 | 4 | 5 | 6 | 7 | 8 | 9 | 10 | 11 |
| --- | --- | --- | --- | --- | --- | --- | --- | --- | --- | --- | --- |
| 26S disassembly | 0.0 | -0.1 | 0.2 | 1.0 | 0.6 | -0.6 | 0.5 | 0.5 | 0.8 | 0.6 | 0.3&1.3 |
| VCAM-1 rise | i | i | i | i | i | i | i | i | i | i | i |
